Bead autofluor: compound fluorescence in toxin protease inhibitor counterscreen; compound autofluorescence counterscreen, microsphere flow cytometry; stronger effect = higher value; fluorescence intensity (concentration not given with the values); 360,000 compounds, 3.1% hits; AID 624483;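 active means at least 3 SD above the mean of all compounds, about 16000 in these data; inconclusive means too few beads counted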;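 further: 100 nL of 1 mM stock went into each well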
RN4220 kill: kills Staphylococcus aureus RN4220; S. aureus RN4220 growth, OD600, 16 h; inhibition, % (concentration not given with the values); 330,000 compounds, 0.33% hits;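 active means z-score of -3 or lower and OD600 up to 0.18 on both plates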;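 further: plate controls were untreated cells for no effect and reference antibiotic for full effect; stock transfer was 100 nL into about 80 µL; one replicate is shown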
Sa ugtP lethal: compounds lethal to S. aureus RN4220 ugtP deletion mutant; 330,000 compounds, 0.54% hits; growth inhibition, % (concentration not given with the values); OD600 growth, 16 h; some inactives read as strong as hits;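 active means z-score under -3 and OD600 up to 0.15 on both plates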;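 further: plate controls were untreated wells for no effect and antibiotic for full effect; wells of about 80 µL received 100 nL stock; the first replicate is given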
Mtb hypoxia inh: inhibitors of hypoxia-regulated fluorescent reporter in Mycobacterium tuberculosis; M. tuberculosis hypoxia-regulated fluorescent reporter, fluorescence; fluorescence inhibition, % (no concentration beside the values); 300,000 compounds, 0.1% hits; AID 1159583;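 active means 35 to 45% if threefold the growth effect, above 45% if 1.5-fold the growth effect; inactive means the rest, general growth blockers included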;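 further: wells of about 50 µL received 100 nL stock; 0% = vehicle wells and 100% = reference inhibitor wells; whole bacteria with a GFP reporter of the hypoxia response; strong numbers were not always called active; many hits fall short of the cut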
BJeLR lethal: BJeLR cell viability loss; AID 1554; inhibition, % (no concentration beside the values); BJeLR (HRASV12) viability, CellTiter-Glo ATP luminescence, 48 h; reference of the scale not given here; 300,000 compounds, 0.17% hits;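 active means replicate mean above 50%; inconclusive means above 50% but judged a plate artefact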;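 further: 50 nL library stock added to about 25 µL; numbers are from one replicate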
PrP UTR inh: inhibition of PrP 5' UTR reporter expression | cell-based PrP 5' UTR mRNA reporter, plate reader | inhibition, % (test concentration not listed) | 340,000 compounds, 0.35% hits;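 active means every replicate at 50% or more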;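 further: 0 = median of the neutral control wells; tested in H4 reporter cells; numbers are from one replicate; inactives centre near -14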
Mtb hypoxia inh growth: also measured in Mtb hypoxia inh; calls as there; growth inhibition, %; measured here: M. tuberculosis growth (absorbance);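 0% = vehicle and 100% = reference antibiotic; read after six days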
Starred values were filed as active, the others as inactive; ? = inconclusive; nt = not tested or not shown.

Values in the order: Bead autofluor	RN4220 kill	Sa ugtP lethal	Mtb hypoxia inh	Mtb hypoxia inh growth	BJeLR lethal	PrP UTR inh
CSc1ccc(CN(C)CC(=O)NCc2ccc(F)cc2)cc1
    5104	6.8	2	8	8	-4	0
CCOC(=O)c1cc(-c2ccccc2)n(CC(=O)N2CCCC2)c1C
    2202	1.0	-2	nt	nt	2	-6
COc1cccc(C2CCCCN2Cc2nc(-c3ccc(C)o3)oc2C)c1 (stereo unspecified)
    8421	-1.9	-7	-12	-5	-8	-21
COCc1cc(C)nc2sc3c(=O)n(-c4cccc5ccccc45)nnc3c12
    3258	3.1	-4	1	1	5	-26
CC(C)(C)N(Cc1ccccc1)C(=O)COC(=O)C1CC1
    2975	2.2	7	15	12	nt	8
C=C1C(=O)O[C@@H]2[C@H]1CC[C@H](C)[C@]1(O)CCC(=O)[C@@]21C
    3509	1.5	-1	3	14	2	-1
CCOCCCNC(=O)C1(O)c2cc(Br)ccc2NC(=O)N1c1ccc(CC)cc1 (stereo unspecified)
    3806	nt	nt	nt	nt	1	-10
Cc1ccc2c(c1)C1CN(C)CCC1N2C(=O)c1ccco1 (stereo unspecified)
    11641	2.5	-3	11	13	-6	-22
CC(CN1CCOCC1)OC(=O)c1cccc(Cl)c1 (stereo unspecified)
    3709	2.5	1	-6	-4	-2	6
Cc1ccccc1C(=O)c1c[nH]c(C(=O)N2CCN(c3ccccc3F)CC2)c1
    4665	3.9	1	4	13	4	-2
Cc1ccc(-n2cc(CCCCCCCCC(=O)O)nn2)cc1
    4336	21	7	6	1	6	-2
CN1CCN(C(=O)c2cccn(Cc3c(Cl)cccc3Cl)c2=O)CC1
    3862	1.8	5	6	4	9	-20
Cc1cc(C)n(CCC(=O)N/N=C/c2ccccc2O)n1
    2564	nt	nt	nt	nt	2	-26
O=Cc1c(N2CCN(c3cccc(Cl)c3)CC2)nc2ccccn2c1=O
    3704	-3.0	1	16	5	-3	-22
Clc1ccc(-n2cc(COCc3ccccc3)nn2)cc1
    3297	4.4	4	5	12	5	-74
CC(C(=O)Nc1ccc(S(=O)(=O)N2CCCCC2)cc1)N1CCN(c2ccccn2)CC1 (stereo unspecified)
    nt	4.5	2	-6	-8	-3	nt
CC(=O)CSc1nc2ccccc2o1
    3449	3.0	1	5	6	0	-35
COC(=O)c1c(NC(=O)Cn2nc(C(F)F)cc2C(F)F)sc(C)c1C
    4632	5.5	-2	nt	nt	2	-31
Cc1cccc(C(=O)NCC(=O)NNC(=O)c2ccccc2O)c1
    5500	0.4	3	6	9	11	-5
CC(=NNC(=O)CSc1nc2nc(C)cc(C)n2n1)c1ccccc1
    nt	3.4	1	7	7	nt	nt
CSC(=NS(=O)(=O)c1ccc(C)cc1)SC
    4161	6.2	1	5	5	6	-26
Cc1cc(C(C)(C)C)cc(C)c1N
    7995	7.9	19	14	14	-1	-22
CNC(=S)N/N=C/c1cn(CCOc2cccc(OC)c2)c2ccccc12
    2564	nt	nt	nt	nt	9	-11
CCOCCCNC(=O)C(c1ccc(OC)cc1)N(Cc1cccs1)C(=O)CNC(C)=O (stereo unspecified)
    3401	13	4	12	4	nt	-9
Cc1cccc(CSCc2ccc(C(=O)NC(C)C)o2)c1
    3559	3.2	6	9	3	-3	-18
CN(C)S(=O)(=O)c1cccc(NC(=O)C2Cc3ccccc3CN2C(=O)c2ccccc2)c1 (stereo unspecified)
    5844	-1.2	10	-3	6	-10	-2
CCOC(=O)c1nc(Nc2ccccc2CC)c2ccccc2n1
    3680	-1.6	-9	-12	7	-3	-11
O=C(Nc1ccc2c(c1)CN(Cc1ccc(CO)o1)CC2)c1ccc(C(F)(F)F)cc1
    4074	nt	nt	nt	nt	0	-29
O=C(O)c1ncc(-c2ccccc2)cn1
    17752*	2.9	10	0	-1	0	-5
CC1CCc2cc(F)cc3c(O)c(C(=O)NCC4CCCO4)c(=O)n1c23 (stereo unspecified)
    3094	1.0	-9	nt	nt	-8	-15
COC(=O)C(NC(=O)c1ccc(F)cc1)(Nc1ncc(S(=O)(=O)c2ccc([N+](=O)[O-])cc2)s1)C(F)(F)F (stereo unspecified)
    4761	2.1	6	-59	-15	-6	-15
COc1ccc(N2CCN(C(=S)Nc3cc(C)cc(C)c3)CC2)cc1
    7747	7.7	-3	-1	4	7	-20
Cn1c(SCC(=O)NC2CCCCCC2)nnc1-c1cccs1
    2991	10	16	3	4	2	-15
Nc1nc(-c2ccccc2)nn1C(=O)Cc1ccccc1
    3531	16	14	-1	1	-2	2
O=C1CSC(c2cccc([N+](=O)[O-])c2)N1c1ccccc1 (stereo unspecified)
    3526	-1.9	5	-6	0	4	-24
Cc1cc(-c2ccc(C(C)C)c(S(=O)(=O)N3CCN(c4ccccc4)CC3)c2)on1
    5194	nt	nt	nt	nt	-4	-7
CNC(=O)N(O)C1N(/N=C/c2cccnc2)C(=S)SC1(C)C (stereo unspecified)
    5932	nt	nt	nt	nt	2	-23
O=C(CNC(=O)c1ccc(OC(F)F)cc1)NCC1(N2CCOCC2)CCCCC1
    3932	5.2	7	5	9	nt	-22
CC(=O)c1cc2cc(O)ccc2o1
    3818	1.8	-1	2	5	1	-18
Cc1ccc(C(=O)n2cc(CCN3CCS(=O)(=O)CC3)c3ccccc32)cc1
    16475*	0.8	8	2	11	1	-14
CCOc1ccc(NC(=O)CCCNC(=O)Cn2cnc3sc(C)c(C)c3c2=O)cc1
    3505	5.3	4	11	12	-4	-20
O=C(CCC1CCCCC1)Nc1cccnc1
    4739	-3.0	3	4	5	8	4
O=S(=O)(NC1CCCCCC1)c1cccc2cccnc12
    16645*	3.1	11	5	5	-18	-1
O=C1CC(=O)Nc2cc(S(=O)(=O)NCc3cccs3)ccc2N1
    5881	-1.1	-1	-3	2	5	-2
O=C(CCCCC(=O)OC1CCCCC1)OC1CCCCC1
    2715	4.7	8	15	7	nt	5
C/C(Cn1nnc([N+](=O)[O-])n1)=N\NC(=O)c1ccc(Cl)c(Cl)c1
    13431	nt	nt	nt	nt	-2	-20
O=C(Cc1c(C(=O)O)[nH]c2ccccc12)NCCN1CCN(c2cccc(Cl)c2)CC1
    4233	12	14	nt	nt	0	-22
COc1ccc2c(c1)c(C(=O)CN1CCN(C)CC1)c(C)n2Cc1ccccc1
    4804	1.8	-9	nt	nt	nt	-12
CCOc1ccc(S(=O)(=O)N(CC(=O)O)c2ccc(C)cc2)cc1
    10574	1.1	2	0	3	6	-22
CC(C)c1ccc(-c2nnn(CCC(=O)O)n2)cc1
    16264*	4.4	4	-1	1	-2	73*
O=C(CCNC(=O)c1ccc(Br)cc1)Nc1ccccc1N1CCCCC1
    nt	-0.3	-11	1	1	3	-8
O=S(=O)(NC1c2cccc3cccc(c23)C1Sc1ncccn1)c1ccc(Cl)cc1 (stereo unspecified)
    2451	-4.8	-22	-11	3	6	-19
O=C(O)C1C2CC3OC(=O)C1C3C2 (stereo unspecified)
    3590	3.2	2	14	8	nt	-44
O=C(O)c1cccc(N2CCCC2)c1
    4673	-0.7	10	nt	nt	0	-18
CC(=O)Nc1ccc(NC(=O)C2CCCN2C(=O)NCc2ccccc2)cc1 (stereo unspecified)
    6230	4.4	2	7	1	-4	-7
CCCCC1(O)CC(C(F)(F)F)=NN1C(=O)COc1ccccc1 (stereo unspecified)
    9300	1.6	9	7	-7	1	-15
COc1ccc(-n2c(CNC(=O)c3ccc(S(=O)(=O)N4CCCC4)cc3)n[nH]c2=S)cc1
    7923	3.7	5	10	3	-3	-18
CSc1cccc(N2CC(C(=O)Nc3cccc(S(=O)(=O)N4CCCC4)c3)CC2=O)c1 (stereo unspecified)
    5889	0.0	-9	3	8	7	-6
CC(C)OC(=O)/C(=C\c1ccccc1)NC(=O)c1ccccc1
    4426	4.2	6	5	9	-2	-65
CC(=O)N1CCN(S(=O)(=O)c2ccc(C)cc2)C1C (stereo unspecified)
    ?	2.6	5	-2	-10	2	-5

Exported with each value named: entries from further up
> O=C(O)c1cccc(N2CCCC2)c1
  Bead autofluor: 4673
  RN4220 kill: -0.7
  Sa ugtP lethal: 10
  Mtb hypoxia inh: nt
  Mtb hypoxia inh growth: nt
  BJeLR lethal: 0
  PrP UTR inh: -18

> CC(=O)Nc1ccc(NC(=O)C2CCCN2C(=O)NCc2ccccc2)cc1 (stereo unspecified)
  Bead autofluor: 6230
  RN4220 kill: 4.4
  Sa ugtP lethal: 2
  Mtb hypoxia inh: 7
  Mtb hypoxia inh growth: 1
  BJeLR lethal: -4
  PrP UTR inh: -7

(further entries)
Values in the order: Bead autofluor	RN4220 kill	Sa ugtP lethal	Mtb hypoxia inh	Mtb hypoxia inh growth	BJeLR lethal	PrP UTR inh
Cc1ccc(-c2nn(-c3ccccc3)cc2C(=O)Nc2ccc(C)c(S(=O)(=O)N3CCOCC3)c2)cc1
    2477	3.8	-5	14	2	6	-24
CC(Sc1ccc(S(=O)(=O)N2CCN(C)CC2)cn1)C(=O)NC1(C#N)CCCCC1 (stereo unspecified)
    nt	5.9	4	-8	-4	nt	-17
Cc1c(C(=O)NC2CCCCC2)oc2c1C(=O)CC(C)(C)C2
    10262	1.7	-1	13	0	6	-35
CCc1ccc(N2CCN(C(=O)N3CCOCC3)CC2)cc1
    2165	-0.1	-1	9	-2	-5	-18
CN(C)c1ccc(NC(=O)CSc2n[nH]c(-c3ccco3)n2)cc1
    4448	9.3	3	-7	2	3	-20
COc1ccc(-c2nc3c(c(SCC(=O)Nc4cccc(O)c4)n2)Cc2c(CO)cnc(C)c2O3)cc1
    4411	-3.4	-10	-1	1	-2	2
CCCN(CC(=O)Nc1ccccc1OC)C(=O)c1cc(-c2ccccc2)nn1-c1ccccc1
    3530	-7.1	34	2	4	nt	-16
CCCCN(C(=O)c1cccc(S(=O)(=O)N(CC)c2ccccc2)c1)c1c(N)n(CC(C)C)c(=O)[nH]c1=O
    3838	-3.6	-6	7	12	nt	1
O=C(Nc1cc(C(F)(F)F)ccc1Cl)c1cccc(N2C(=O)CCC2=O)c1
    4441	0.9	6	9	-1	-6	-15
OCCNc1cc(Cl)ncn1
    6852	-0.9	-1	-8	6	-9	-26
CC1CCc2sc(C(=O)Nc3nnc(SCc4ccc(F)cc4)s3)cc2C1 (stereo unspecified)
    2749	4.1	10	nt	nt	-2	-23
COc1ccc(N2CCN(C(=O)c3ccc(NS(=O)(=O)c4ccc(F)c(F)c4)cc3)CC2)cc1
    17709*	-0.3	19	2	2	-3	5
COc1ccccc1C(=O)N/N=C(\C)CC(=O)Nc1ccccn1
    3230	nt	nt	nt	nt	-13	1
COC(=O)c1ccccc1NCc1cc(=O)oc2cc(O)c(O)cc12
    4012	6.3	-4	13	-4	7	-4
O=C(C1CC(c2ccccc2O)=NO1)N1CCc2ccccc2C1 (stereo unspecified)
    5949	-0.8	-6	1	6	9	-33
O=C(NC(c1ccccc1)c1ccccn1)c1cccc([N+](=O)[O-])c1 (stereo unspecified)
    5036	1.6	7	15	10	-10	-15
CCn1cc(CNC(=S)Nc2cccc3ccccc23)cn1
    5029	5.9	-2	3	8	-7	-21
COc1ccccc1CNC(=O)C1Cc2cc(S(=O)(=O)N3CCCCC3)ccc2N1C(C)=O (stereo unspecified)
    5180	5.1	12	4	2	-2	1
COc1ccc(NC(C)=O)cc1NC(=O)CN1CCN(CC(=O)Nc2ccccc2Cl)CC1
    5350	-1.8	-1	nt	nt	6	-4
Cc1cc(-c2nc3ccccc3[nH]2)ccc1N
    4284	25	9	3	3	15	-33
Cc1ccc(N(C)C(=O)N2CCN(S(=O)(=O)c3ccc(C)cc3)CC2)cc1
    4658	5.0	-6	nt	nt	10	2
Cc1ccc(C)c(CNC(=O)Nc2ccccc2)c1
    3996	3.9	0	11	1	-7	-45
CCc1nc2ccccc2[nH]c1=O
    4197	4.8	-6	12	-5	-4	1
CC(C)CN(CCCNC(=O)CC1Oc2ccccc2NC1=O)CC(C)C (stereo unspecified)
    10423	1.1	2	2	0	-20	-11
CC(C)CCCN1CCN=C1N(C)C
    3879	3.6	-1	7	8	-20	-11
CCN(CC)c1ccc(C=NNc2nc(C)cc(C)n2)cc1
    nt	2.7	4	12	13	nt	nt

Screening data from PubChem.
